# Screens as filed in PubChem BioAssay.
# nsP2pro inh – Primary qHTS for inhibitors of NSP2Pro chikungunya virus (CHIKV) | Polyprotein P1234 (Chikungunya virus (strain S27-African prototype)), Q8JUX6 | FRET peptide cleavage, nsP2pro, fluorescence 1 h | Potency, µM (highest dose often 24.9 µM), for inactives: at the top dose activity change, negative = inhibition, usual class: inhibitors | 31,000 tested, 1.1% active | AID 1964107, 2024; active means well fitted inhibition curve with a large enough effect; inconclusive means small, poorly fitted or top-dose-only effect; inactive means no such curve, though single readings can be large or run the other way; note: nearly all actives have a fitted effect of over 60% in size; a reference inhibitor and vehicle were the controls
# * hit, by the source's call; i = inactive; u = inconclusive; & = joins results of further samples; [ ] = another dose, or the depositor's remark. % is set by controls: 0 for no effect and ±100 for the full control effect; potency is the fitted concentration of half-maximal effect. A portion of the library. The share of hits here may be higher or lower than overall.
SMILES | nsP2pro inh
Cc1ccc(NC(=O)CSc2nnc3nc(C)cc(C)n23)cc1 | 5%
Cn1nnnc1Sc1ncnc2scc(-c3ccc(F)cc3)c12 | i
Cc1cc(NC(=O)c2ccc(NC(=O)Cc3ccc(Cl)c(Cl)c3)cc2)no1 | 4%
CCOC(=O)CNc1ncnc2c1nnn2C | -19%
CCc1ccccc1NC(=O)CSc1nc2c(c(=O)[nH]1)CN(Cc1ccccc1OC)CC2 | u
Fc1cc(Nc2nc(-c3ccncc3)nc3ccccc23)ccc1-c1cc(F)c(F)c(F)c1 | 0%
O=C(Cc1ccc(Cl)c(Cl)c1)Nc1ccc([S+](=O)([O-])Nc2ccc3[nH]ccc3c2)cc1 | -12%
CC(C)CCN1CC2(CCCN(C(=O)c3ccn(C)c(=O)c3)C2)CCC1=O (configuration not stated) | -19%

# (list continues)
SMILES | nsP2pro inh
O=C(Nc1cc(F)ccc1F)C1COc2ccccc2C1 (configuration not stated) | -12%
COC(=O)C(C)Sc1nc2c([nH]c3ccccc32)c(=O)n1-c1ccc(OC)cc1 (configuration not stated) | -19%
O=C(NCc1ccccc1Cl)C1CCN(S(=O)(=O)c2ccc3c(c2)CCCN3C(=O)C2CCC2)CC1 | -25%
CC(=O)N1CCOc2cc(S(=O)(=O)N(C)Cc3ccccc3)c(Cl)cc21 | -15%
CN(C)c1cccc(Oc2nnnn2[C@H]2CO[C@H]3[C@@H]2OC[C@@H]3NCC2CC2)c1 | -2%[39.2 µM]
COc1ccccc1C(=O)N1CCCC(CN2CCC(C)CC2)CC1 (configuration not stated) | i
Cc1ccc(NC(=O)C2N(C(C)C)C(=O)C23CCCCC3)cc1 (configuration not stated) | -7%
CCOc1ccc(N(C(=O)c2ccccc2F)S(=O)(=O)c2ccc3c(c2)n(C)c(=O)n3C)cc1 | -5%

# (listing goes on)
SMILES | nsP2pro inh
CC(=O)O[C@H]1[C@H](O[C@H]2[C@@H]3C=CO[C@@H](O[C@@H]4O[C@H](CO)[C@@H](O)[C@H](O)[C@H]4O)[C@@H]3[C@@]3(CO)O[C@@H]23)O[C@@H](C)[C@H](OC(=O)/C=C/c2ccccc2)[C@H]1OC(=O)/C=C/c1ccccc1 | 33%[5.1 µM]
COc1cc(NC(=O)N2CCC(CN3CCOCC3)CC2)cc(OC)c1OC | -5%
O=C(NCCc1ccc(F)cc1)c1cc(CN2CCOCC2)on1 | i
O=S(=O)(NCC1CN(CC2CC2)CC12CCCCC2)c1cccs1 (configuration not stated) | 4%
COc1ccc(NC(=O)CSc2nc(C)cc(C)c2C(=O)Nc2ccccc2OC)cc1 | -17%
NCCC[C@H](NC(=O)[C@@H]1CCCN1C(=O)[C@@H]1CSSC[C@H](N)C(=O)N[C@@H](Cc2ccc(O)cc2)C(=O)N[C@@H](Cc2ccccc2)C(=O)N[C@@H](CCC(N)=O)C(=O)N[C@@H](CC(N)=O)C(=O)N1)C(=O)NCC(N)=O | -4%
CSc1cccc(NC(=O)Cn2c(=O)n(Cc3ccccc3)c(=O)c3sc4ccccc4c32)c1 | -19%
CCOc1ccc(CCNC(=O)c2cc3ccncc3n2Cc2cccc(C)c2)cc1OCC | i

# Further compounds
SMILES | nsP2pro inh
Cn1nnnc1Sc1ncnc2scc(-c3ccc(Cl)cc3)c12 | i
O=C(NCCc1ccc(Cl)cc1)c1cccn1-c1nnc(N2CCCC2)s1 | u
COc1ccc2[nH]c(C(=O)N3C[C@@H](CO)[C@H](c4ccncc4)C3)cc2c1 | -1%
O=C(Cc1ccccc1)Nc1sc2c(c1C(=O)Nc1ccccc1)CCCCC2 | -28%
Nc1ccc(C(=O)NCC(=O)O)cc1 | -22%&-2%
CCN(CC)C(=O)C[C@@H]1CCNC[C@@H]1Cc1cc(-c2ccccn2)on1 | 1%[39.2 µM]
CC(=O)OCC1OC(O[C@H]2CC[C@@]3(C)C(CC[C@]4(C)C3CC=C3[C@@H]5CC(C)(C)CC[C@]5(C(=O)O)CC[C@]34C)[C@]2(C)CO)C(O)C(O)C1OC1OC(C)C(O)C(OC2OCC(O)C(O)C2O)C1O (some centres not stated) | -18%[5.1 µM]
CCCn1c(=O)c2c(nc3n2CCN3c2ccc(C)cc2)n(C)c1=O | -14%

# New compounds follow:
SMILES | nsP2pro inh
O=C(O)CC(=O)OC[C@H]1O[C@@H](Oc2ccc3c(c2)OC[C@H]2c4cc5c(cc4O[C@@H]32)OCO5)[C@H](O)[C@@H](O)[C@@H]1O | 4%[10 µM]
Cc1noc([C@@H]2CN(Cc3ccc[nH]3)C[C@H]2CO)n1 | i
C[C@@]1(O)[C@H](O)[C@@H](CO)O[C@H]1n1cnc2c(=O)[nH]c(N)nc21 | -8%
CN1CCN(c2ccc(-c3cccc(CN4CCOCC4)c3)cc2NC(=O)c2c[nH]c(=O)cc2C(F)(F)F)CC1 | 7%
COc1ccc(OC)c(CCNC(=O)c2ccc(CS(=O)Cc3cccc(Cl)c3)o2)c1 (configuration not stated) | -17%
COc1ccc(Cc2ncc3c(n2)CN(C(=O)c2ccc(OC)c(O)c2)C3)cc1 | 5%
COc1ccc(N(C)C(=O)c2oc(=O)c3ccccc3c2-c2ccc(C)cc2)c(OC)c1 | -13%
CCOc1ccc(-n2c(SCc3ccc(C(=O)OC)o3)nc3c([nH]c4ccccc43)c2=O)cc1 | -25%

# Later entries.
SMILES | nsP2pro inh
CN(C)S(=O)(=O)N1CCC2(CCC(=O)N(CC3CC3)CC2)CC1 | -2%
O=C(NCCc1csc(-c2cnccn2)n1)C1CC2(CCNCC2)CN1 (configuration not stated) | u
CCOc1ccc(C2=NC(c3ccncc3)=Nc3ccc(C)cc3N2)cc1OCC | -1%
O=C(COc1cccc(-c2nnc3n2CCCC3)c1)Nc1ccc(Cl)cc1F | 3%
O=C1CCN(Cc2cccc(F)c2)CCCOCCN1 | 0%
O=C(NCCCc1nc2ccccc2n1Cc1cccc(Cl)c1)c1ccco1 | -1%
COc1ccc(C2CC(=O)Oc3c2c(=O)oc2ccccc32)c(OC)c1OC (configuration not stated) | -36%
OC[C@H]1O[C@@H](OCCc2ccc(O)cc2)[C@H](O[C@@H]2OC[C@](O)(CO)[C@H]2O)[C@@H](O)[C@@H]1O | -13%[10 µM]

# (continued)
SMILES | nsP2pro inh
CCc1ccc(NC(=O)c2cc(C(C)=O)n3ccccc23)cc1 | 2%
Cc1cn2nnc(C(=O)NCc3ccc(C(C)C)cc3)c2c(=O)[nH]1 | i
CC(C)(O)C1CC(=O)C2(C)C(CCC3(C)C(c4ccoc4)OC(=O)C4OC432)C12CCC(=O)OC2 (configuration not stated) | 0.86µM*
Cc1ccccc1CC(=O)Nc1cccc(-c2nnc3n2CCCC3)c1 | 2%
C=CCC1(CO)CCCN(C(=O)CCCn2nc(C)cc2C)C1 (configuration not stated) | 0%
CC1CCN(c2ncnc3c2cnn3-c2ccc(F)cc2)CC1 | -6%
CCOc1ccccc1NC(=O)Cn1c(=O)ccc2cc(S(=O)(=O)N3CCC(C)CC3)ccc21 | -16%
COc1ccccc1OCCn1c(NC(=O)c2ccccc2Cl)nc2ccccc21 | 17%

# Next section
SMILES | nsP2pro inh
CCC(C)NC(=O)Cn1c(=O)cc(-c2ccccc2)c2c(C)nn(C)c21 (configuration not stated) | -11%
O=C(Nc1nnc(S(=O)(=O)N2CCCCC2)s1)c1ccccc1Br | -11%
CC[C@H]1CN2CC[C@H]1C[C@@H]2CNCc1ccc(-c2ccccc2)cc1 | i
COc1ccc(CNC(=O)CCCn2c(=O)c3cccn3c3cccnc32)cc1 | -18%
COc1ccccc1CN(Cc1c(Cl)cccc1Cl)S(=O)(=O)c1ccc(Br)cc1 | -8%
COc1cccc(C2c3c(ncn(Cc4cccs4)c3=N)Oc3ccc4ccccc4c32)c1 (configuration not stated) | -8%
Cc1ccc(C(N)=O)cc1Nc1nccc(-c2cn(C(C)C)c3cnccc23)n1 | 87%[activator]
Cc1ccc(C(C)C)c(O[C@@H]2O[C@H](CO)[C@@H](O)[C@H](O)[C@H]2O)c1 | 41%[activator]

# Further records follow.
SMILES | nsP2pro inh
Cc1nc(NCc2ccccc2)c2nc(-c3ccccc3)n(CCCN(C)C)c2n1 | 3%
C=C[C@@](C)(O)CC/C=C(\C)C(=O)O[C@@H]1[C@@H]2O[C@]2(C)[C@H]2[C@H](O[C@@H]3O[C@H](CO)[C@@H](O)[C@H](O)[C@H]3O)OC=C[C@@]12O | u
COc1cc2c(cc1CN1CCn3nc(C(O)CO)cc3C1)OCCO2 (configuration not stated) | -6%
CC(C)(C)OC(=O)N1CCN(c2ccc(NCc3ccc4c(-c5ccc(F)cc5)cc(=O)oc4c3)cc2)CC1 | u
O=[S+]1([O-])c2cccnc2OC(Cn2cccc2)CN1Cc1cccc(F)c1 (configuration not stated) | i
COCc1cc(C[C@@H]2C[C@H](NS(C)(=O)=O)C2(C)C)no1 | -17%[39.2 µM]
CCCNC(=O)N[C@@H]1CCC[C@@H](C(=O)N(CC)CC)CC(=O)N(C)C1 | 5.6µM*
O[C@H]1CC[C@@H](Cc2cc(-c3ccc(F)cc3)on2)O[C@@H]1CNC1CCCCC1 | 2%[39.2 µM]

# (list continues)
SMILES | nsP2pro inh
CC1CCN([C@@H]2[C@H](O)[C@H](CO)O[C@@H]2CNC(=O)c2cccs2)CC1 | -17%[39.2 µM]
O=C(c1ccc(Cn2cccn2)o1)N1CCC2(CC1)[C@H](O)C[C@@H]2O | -6%
C[C@H]1[C@@H]2[C@@H](O)C([C@H](C)C(=O)N3CCCC3)CC[C@@]2(C)CC[C@@H]1NC(=O)Nc1cccc(F)c1 (some centres not stated) | 4%
CC(=O)N1c2ccc(S(=O)(=O)NCC3CCC(C(=O)Nc4cccc(F)c4)CC3)cc2CC1C (configuration not stated) | -9%
O=C(O)CCn1ccc2cc(S(=O)(=O)N3CCCCCC3)ccc21 | -18%
C=CCc1cccc2cc(C(=O)NCCc3c(C)[nH]c4c(C)cccc34)c(=O)oc12 | -23%
OC[C@H]1O[C@@H](OCCc2ccccc2)[C@H](O[C@@H]2OC[C@](O)(CO)[C@H]2O)[C@@H](O)[C@@H]1O | 8%[10 µM]
Cc1cc(C)n2ncc(C(=O)NCC(C)C)c2n1 | -3%

# New compounds follow.
SMILES | nsP2pro inh
CC12CCC3c4ccc(O)cc4CCC3C1CC(O)C2O (configuration not stated) | -23%
CN1C(N)=N[C@](C)(c2cc(NC(=O)c3ccc(F)cn3)ccc2F)CS1(=O)=O | -7%&-14%
CCn1c(=NC(=O)c2ccc(S(=O)(=O)N3CCCCC3)cc2)sc2cccc(OC)c21 | -15%
c1ccc(N2CCN(Cc3nnc(-c4ccc5c(c4)OCO5)o3)CC2)cc1 | -28%
NS(=O)(=O)c1ccc(F)c(C(=O)NCc2noc(-c3ccco3)n2)c1 | 1%
C=CC(C)(C)C1(CC2NC(=O)C3CCCN3C2=O)C(=O)Nc2cc3c(cc21)C=CC(C)(C)O3 (configuration not stated) | -15%[10 µM]
CC(=O)Nc1ccc(-c2c(C(C)C)nn(-c3cccc(F)c3)c2OC(C)=O)cc1 | i
Cn1cc(C2=C(c3ccc(Cl)cc3Cl)C(=O)NC2=O)c2ccccc21 | 43%[activator]

# Random excerpt: 6 entries already listed
SMILES | nsP2pro inh
CC12CCC3c4ccc(O)cc4CCC3C1CC(O)C2O (configuration not stated) | -23%
Cn1cc(C2=C(c3ccc(Cl)cc3Cl)C(=O)NC2=O)c2ccccc21 | 43%[activator]
NS(=O)(=O)c1ccc(F)c(C(=O)NCc2noc(-c3ccco3)n2)c1 | 1%
CCn1c(=NC(=O)c2ccc(S(=O)(=O)N3CCCCC3)cc2)sc2cccc(OC)c21 | -15%
CN1C(N)=N[C@](C)(c2cc(NC(=O)c3ccc(F)cn3)ccc2F)CS1(=O)=O | -7%&-14%
c1ccc(N2CCN(Cc3nnc(-c4ccc5c(c4)OCO5)o3)CC2)cc1 | -28%

# Continuation:
SMILES | nsP2pro inh
Cc1cc(C)n2ncc(C(=O)Nc3ccccc3Sc3ccccc3)c2n1 | -1%
C=C(C)[C@@H]1CC=C(COC(=O)NC(=O)c2ncn3c(=O)n(C)nnc23)CC1 | -11%
CC(C)c1cc(C(=O)NCc2ccc(F)cc2)no1 | -21%
O=C(c1ccoc1)N1CC[C@@H](c2ccc3ccccc3c2)[C@H](O)C1 | -15%
O=C(CC(c1ccccc1)c1ccccc1)N1CCN(C(c2ccccc2)c2ccccc2)CC1 | 8%
CC(C)c1ccc(NC(=O)CSc2nc(=O)n(Cc3ccccn3)c3c2CCC3)cc1 | -12%
Nc1nc(Nc2ccc(S(N)(=O)=O)cc2)n(C(=S)Nc2c(F)cccc2F)n1 | 18%
CCC(=O)N1CCc2cc(S(=O)(=O)NCc3ccc(C)cc3)ccc21 | -7%

# The results go on.
SMILES | nsP2pro inh
COCC(=O)NC[C@H]1CCN(Cc2ccc(C)s2)C[C@H]1N(C)C | i
O=C(NC1CCN(c2cc(N3CCOCC3)cnn2)C1)C1CC1 (configuration not stated) | 0%
CC(O)C(=O)N1CCc2[nH]nc(C(c3ccccc3)c3ccccc3)c2C1 (configuration not stated) | -5%
CCNC(=O)CC1C(=O)N(c2ccc(F)cc2)C(=O)N1Cc1ccc(OC)c(OC)c1 (configuration not stated) | -14%
O=C(O)c1cc(=O)c2cccc(O)c2[nH]1 | -18%
COc1ccc(C2=NOC3(CCCN([S+](=O)([O-])c4cccc(C(F)(F)F)c4)C3)C2)cc1 (configuration not stated) | -3%
C[C@]1(O)CCN(C(=O)c2cn(C3CCC(N)CC3)nn2)C[C@@H]1O (some centres not stated) | -7%
Cc1c(C(=O)Nc2cccc(Cl)c2)sc2nc3n(c(=O)c12)N=C(c1cccc(Br)c1)CS3 | -21%
Cn1c(Cn2cccn2)nnc1C1CCCN(C(=O)c2ccoc2)C1 (configuration not stated) | -2%
CCCCCCCCC(=O)N[C@H](CN1CCCC1)[C@H](O)c1ccc2c(c1)OCCO2 | 21%
